MT1-MMP act inh: inhibitors of human MT1-MMP activation | actives 0.061% (n = 360,000) | GFP/RFP ratio change, % at 20 µM | HT1080 RFP-PRO-GFP cells, GFP/RFP ratio fluorescence, overnight; percent of plate control window, DMSO zero | P50281;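 active = GFP/RFP ratio change of at least 30% with cell ATP level not reduced by more than half and red fluorescence within 50% of control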; note: strong numbers were not always called active
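Test system: HT1080 cells expressing an RFP-PRO-GFP fluorescent reporter construct / Compound dosing: single-point 20 µM compound, 1% DMSO / Schedule: cells overnight before dosing, compound overnight, 37 °C, 5% CO2 / Evaluation: GFP/RFP fluorescence ratio / Control set: DMSO and RFP-L50D-GFP cell wells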
Env fusion inh: inhibitors of HIV Env-mediated cell fusion | HeLa-JRFL Env/CEM21 cell fusion, luciferase | inhibition, % at 12.3 µM | actives 1.1% (n = 360,000);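 active = mean replicate inhibition score of at least 50 and every replicate individually at or above 50; inconclusive = only one of the two criteria met; inactive = mean below 50 and not all replicates reaching 50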;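 note: 0% = plate neutral controls and 100% = maraviroc near 300 nM; one replicate is shown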
eIF4H inh: inhibitors of RNA binding by human eIF4H | eIF4H fluorescence polarization binding assay | inhibition, % at 35 µM | actives 0.94% (n = 290,000);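 active = 50% or more with normal probe brightness, or confirmed in later tests; inconclusive = above 50% with abnormal brightness, or retests that disagree; inactive = below 50% or failed in later tests; about a fifth of its hits are not listed in these tables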;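 note: calls also rest on retests at 20 µM and on dose response follow-up; 0% = protein and probe with vehicle and 100% = probe without protein; strong numbers were not always called active; many hits fall short of the cut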
CSC inhib: cancer stem cell inhibition | actives 1.1% (n = 300,000) | inhibition, % at 7.5 µM | cancer stem cell-like cells viability, luminescence | AID 2717;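 active = mean at 75% or more and at least half the replicates too; inconclusive = mean and replicates disagree; tested in HMLE shEcad cells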;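 note: 0% = median of negative and 100% = median of positive control wells; the first replicate is given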
Rce1 inhib: blocks yeast Ras-converting enzyme; yeast membranes, quenched prenylated peptide cleavage fluorescence; calls only; actives 0.27% (n = 290,000); AID 2563;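 active = fall in fluorescence gain of 50% or more versus controls, with final raw signal at or below 3038400; inconclusive = same 50% fall but final raw signal above 3038400; inactive = fall in fluorescence gain under 50%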;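 note: plate controls were neutral control wells for no effect and wells lacking membranes for full effect; tested at 10 µM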
Yeast UUG start: yeast start codon fidelity modulation; S. cerevisiae UUG-firefly luciferase reporter, luminescence/redox ratio; activity score, % at 18.7 µM; actives 0.13% (n = 350,000); AID 602363;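 active = replicate mean at a twofold rise or more, about +100% in these data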;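 note: firefly luciferase made from a UUG start codon reports start codon fidelity; reporter light over untreated wells divided by growth signal over untreated wells; some hits fall short of that in this replicate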
PABP polyA inh: PABP-poly(A) binding inhibition; PABP-poly(A) RNA binding, fluorescence polarization; inhibition, % at 35 µM; actives 1% (n = 290,000);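 active = 50% or more with normal probe brightness, or confirmed in later tests; inconclusive = above 50% with abnormal brightness, or retests that disagree; inactive = below 50% or failed in later tests; about a fifth of its hits are not listed in these tables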;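 note: calls also rest on retests at 20 µM and on dose response follow-up; controls were probe without protein and protein plus probe with vehicle; some compounds called inactive have numbers as strong as hits; many hits fall short of the cut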
Target sequence (P11940 whole entry, looked up): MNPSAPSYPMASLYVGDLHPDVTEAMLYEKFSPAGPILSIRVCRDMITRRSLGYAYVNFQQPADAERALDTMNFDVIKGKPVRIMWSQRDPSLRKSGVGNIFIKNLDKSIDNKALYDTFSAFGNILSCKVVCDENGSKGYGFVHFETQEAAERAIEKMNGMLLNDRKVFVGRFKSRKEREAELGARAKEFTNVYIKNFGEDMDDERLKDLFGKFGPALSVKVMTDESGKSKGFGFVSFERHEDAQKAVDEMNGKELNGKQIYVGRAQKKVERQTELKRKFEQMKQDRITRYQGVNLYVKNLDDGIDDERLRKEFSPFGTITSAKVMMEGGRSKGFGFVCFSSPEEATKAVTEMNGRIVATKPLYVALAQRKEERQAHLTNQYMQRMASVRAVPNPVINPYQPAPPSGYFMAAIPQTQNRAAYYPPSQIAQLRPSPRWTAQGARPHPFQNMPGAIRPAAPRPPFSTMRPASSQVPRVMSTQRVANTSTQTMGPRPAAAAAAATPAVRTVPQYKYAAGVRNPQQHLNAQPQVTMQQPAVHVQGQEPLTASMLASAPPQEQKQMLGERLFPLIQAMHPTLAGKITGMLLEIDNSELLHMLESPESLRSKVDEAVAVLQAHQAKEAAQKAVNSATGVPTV
eIF4H inh retest: also measured in eIF4H inh; calls as there; inhibition, %; compound at 20 µM; confirmation average;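 mean of two retest wells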
PABP polyA inh retest: further read-out of PABP polyA inh, marked with its call; inhibition, %; compound at 20 µM; confirmation repeats;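 mean of two retest wells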
MT1-MMP act inh RFP: recorded beside MT1-MMP act inh, whose call it bears; RFP signal change, %; measured here: RFP expression control read;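 0 = vehicle wells; hits needed this value within 50% of zero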
Active calls of the source: *.

For CC1(C)CC(=O)C=C(NCCN2CCN(C(=O)Cc3ccc(Cl)cc3)CC2)C1 the results were MT1-MMP act inh 1, eIF4H inh -3, CSC inhib -7, Rce1 inhib inactive, Yeast UUG start -4, PABP polyA inh 6 and MT1-MMP act inh RFP 0.
Screening CCCCn1c(=O)c(C=Nc2cc([N+](=O)[O-])ccc2OC)c(O)n(CCCCl)c1=O returned MT1-MMP act inh -27, Env fusion inh 12, eIF4H inh inconclusive, CSC inhib 3, Rce1 inhib inactive, PABP polyA inh 3 and MT1-MMP act inh RFP 2.
For CC1c2ccccc2-n2nncc2CN1C (configuration not stated) the results were MT1-MMP act inh 2, Env fusion inh -2, Yeast UUG start -9 and MT1-MMP act inh RFP 6.
For Cn1c(O)c(C=NCCCN2CCCC2=O)c(=O)n(C)c1=O the results were MT1-MMP act inh 0, Env fusion inh -12, eIF4H inh -8, Rce1 inhib inactive, Yeast UUG start -22, PABP polyA inh -8 and MT1-MMP act inh RFP 3.
`CCOP(=O)(OCC)c1cccc(OP(=O)(c2cccc([N+](=O)[O-])c2)c2cccc([N+](=O)[O-])c2)c1` gave MT1-MMP act inh 5, Env fusion inh 12, eIF4H inh -11, CSC inhib -14, Rce1 inhib inactive, Yeast UUG start -4, PABP polyA inh -8 and MT1-MMP act inh RFP 3.
`CCCCn1c(O)c(C(C)=NCc2cccnc2)c(=O)[nH]c1=O` gave MT1-MMP act inh 3, Env fusion inh -9, eIF4H inh 2, CSC inhib -13, Rce1 inhib inactive, Yeast UUG start -25, PABP polyA inh -2 and MT1-MMP act inh RFP 3.
For Cn1cc(C(O)CN2CCCCC2)c2ccccc21 (configuration not stated) the results were MT1-MMP act inh -1, Env fusion inh -6, eIF4H inh 1, CSC inhib -7, Rce1 inhib inactive, Yeast UUG start -3, PABP polyA inh 11 and MT1-MMP act inh RFP 2.
`CN(C)c1ccc(C=C2C(=O)NC(=O)NC2=O)cc1` gave MT1-MMP act inh 0, Env fusion inh 0, Yeast UUG start -2 and MT1-MMP act inh RFP 0.
For COc1ccc(NC(=O)CN2CC=C(c3ccccc3)CC2)cc1S(=O)(=O)N1CCOCC1 the results were MT1-MMP act inh -1, Env fusion inh -15, eIF4H inh -8, CSC inhib -3, Rce1 inhib inactive, PABP polyA inh 34 and MT1-MMP act inh RFP 0.
Screening COc1cccc(C(=O)C2CCCN(Cc3ccccn3)C2)c1 (configuration not stated) returned MT1-MMP act inh 2, Env fusion inh 6, eIF4H inh -12, CSC inhib -7, Rce1 inhib inactive, PABP polyA inh 2 and MT1-MMP act inh RFP 4.
For CCOc1cc(CNC(C)C(O)c2ccccc2)cc(Cl)c1OCC (configuration not stated) the results were MT1-MMP act inh 3, Env fusion inh -1, eIF4H inh 2, CSC inhib -3, Rce1 inhib inactive, Yeast UUG start 3, PABP polyA inh 11 and MT1-MMP act inh RFP 6.
`CCOc1ccc(-c2cc(C)[n+](CCc3ccc(OC)c(OC)c3)c(-c3ccc(OCC)cc3)c2)cc1` gave MT1-MMP act inh -33, Env fusion inh 25, eIF4H inh -11, CSC inhib 33, Rce1 inhib inactive, Yeast UUG start -9, PABP polyA inh -5 and MT1-MMP act inh RFP -37.
CC1CCCN(C(=O)CN2C3CCC2CC(O)(c2ccc(F)cc2)C3)C1 (configuration not stated) was read as MT1-MMP act inh -5, Env fusion inh 13, eIF4H inh -22, CSC inhib -12, Rce1 inhib inactive, PABP polyA inh inconclusive and MT1-MMP act inh RFP -2.
Screening Cc1ccc2c(c1)C1CN(C)CCC1N2C(=S)Nc1cccnc1 (configuration not stated) returned MT1-MMP act inh 0, Env fusion inh 10, eIF4H inh 1, CSC inhib -5, Rce1 inhib inactive, PABP polyA inh -10 and MT1-MMP act inh RFP 4.
`CC[C@H]1OC(=O)C[C@@H](O)[C@H](C)[C@@H](O[C@@H]2O[C@H](C)[C@@H](O[C@H]3C[C@@](C)(O)[C@@H](O)[C@H](C)O3)[C@H](N(C)C)[C@H]2O)[C@@H](CC=O)C[C@@H](C)C(=O)/C=C/C(C)=C/[C@@H]1CO[C@@H]1O[C@H](C)[C@@H](O)[C@@H](OC)[C@H]1OC` gave MT1-MMP act inh 4, Env fusion inh -14, Yeast UUG start 38 and MT1-MMP act inh RFP 3.
COC(=O)C1=C(c2ccc(OCc3ccccc3)cc2)C[C@@H]2CC[C@H]1N2C(=O)NCCCCc1ccccc1 was read as MT1-MMP act inh -16, Env fusion inh -227, Yeast UUG start 3 and MT1-MMP act inh RFP -33.
Screening Cc1ccc(N2C(=O)NC(=O)C3(Cc4ccccc4N4CCCC43)C2=O)cc1 (configuration not stated) returned MT1-MMP act inh -10, Env fusion inh -89, eIF4H inh 16, CSC inhib 3, Rce1 inhib inactive, Yeast UUG start -7, PABP polyA inh -5 and MT1-MMP act inh RFP 7.
Screening CCn1c(O)c(C=Nc2ccc(N3CCOCC3)c(Br)c2)c(=O)n(CC)c1=S returned MT1-MMP act inh 8, Env fusion inh -17, eIF4H inh inconclusive, CSC inhib 8, Rce1 inhib inactive, Yeast UUG start -16, PABP polyA inh inconclusive and MT1-MMP act inh RFP 25.
For CCCc1nc2ccccc2c(=O)n1-c1ccc(O)cc1 the results were MT1-MMP act inh -7, Env fusion inh -3, eIF4H inh 5, CSC inhib 3, Rce1 inhib inactive, PABP polyA inh 4 and MT1-MMP act inh RFP -7.
For CCC(=NCc1cccnc1)c1c(O)n(C2CCCCC2)c(=O)[nH]c1=O the results were MT1-MMP act inh -2, Env fusion inh 27, eIF4H inh -5, CSC inhib -1, Rce1 inhib inactive, Yeast UUG start -17, PABP polyA inh -3 and MT1-MMP act inh RFP -5.

Continued, starting with the last 2 of the part before.
For CCCc1nc2ccccc2c(=O)n1-c1ccc(O)cc1 the results were MT1-MMP act inh -7, Env fusion inh -3, eIF4H inh 5, CSC inhib 3, Rce1 inhib inactive, PABP polyA inh 4 and MT1-MMP act inh RFP -7.
For CCC(=NCc1cccnc1)c1c(O)n(C2CCCCC2)c(=O)[nH]c1=O the results were MT1-MMP act inh -2, Env fusion inh 27, eIF4H inh -5, CSC inhib -1, Rce1 inhib inactive, Yeast UUG start -17, PABP polyA inh -3 and MT1-MMP act inh RFP -5.
Screening CCCCCCCCCCCCn1ccc(=N)cc1 returned MT1-MMP act inh -8, Env fusion inh 69*, eIF4H inh -3, CSC inhib 102*, Rce1 inhib inactive, Yeast UUG start 0, PABP polyA inh 11 and MT1-MMP act inh RFP -34.
For Cc1nc2cc(-c3ccccc3)nn2c(C)c1CCC(=O)N1CCC2(CC1)OCCO2 the results were MT1-MMP act inh 15, Env fusion inh 38, eIF4H inh -9, CSC inhib 9, Rce1 inhib inactive, Yeast UUG start 23, PABP polyA inh -10 and MT1-MMP act inh RFP -4.
Cc1cc(/C=C2\C(=O)NC(=O)N(c3ccccc3)C2=O)c(C)n1-c1ccc(C(=O)O)c(Cl)c1 was read as MT1-MMP act inh -18, Env fusion inh 9, eIF4H inh 100, CSC inhib 2, Rce1 inhib inactive, Yeast UUG start 9, PABP polyA inh 31*, eIF4H inh retest 30, PABP polyA inh retest 67* and MT1-MMP act inh RFP 4.
For CCOP(=O)(OCC)C1(C(=O)O)CCCC1 the results were MT1-MMP act inh 0, Env fusion inh 10, eIF4H inh 3, CSC inhib -7, Rce1 inhib inactive, Yeast UUG start -18, PABP polyA inh -2 and MT1-MMP act inh RFP 0.
`N=c1ccccn1Cc1ccccc1` gave MT1-MMP act inh 1, Env fusion inh 5, eIF4H inh -4, CSC inhib 2, Rce1 inhib inactive, PABP polyA inh 0 and MT1-MMP act inh RFP 5.
COc1cccc(OC)c1CN1CCCC(C(=O)c2cccc(Cl)c2)C1 (configuration not stated) was read as MT1-MMP act inh -4, Env fusion inh 20, eIF4H inh 3, CSC inhib 9, Rce1 inhib inactive, Yeast UUG start 2, PABP polyA inh 12 and MT1-MMP act inh RFP 0.
Cc1ccccc1-c1ccc2n1Cc1cnnn1-c1ccccc1-2 was read as MT1-MMP act inh -2, Env fusion inh 14, Yeast UUG start -8 and MT1-MMP act inh RFP -5.
`Cc1ccc(-n2c(=S)[nH]c3ccccc3c2=O)cc1C` gave MT1-MMP act inh 1, Env fusion inh 13, Yeast UUG start -22 and MT1-MMP act inh RFP 4.
`CCn1c(C)c(C(=O)NCCc2ccccc2)c2cc(OC)ccc21` gave MT1-MMP act inh -3, Env fusion inh 11, eIF4H inh 6, CSC inhib -9, Rce1 inhib inactive, Yeast UUG start -8, PABP polyA inh 4 and MT1-MMP act inh RFP -1.
`CCCn1cc(C(=O)O)cn1` gave MT1-MMP act inh 5, Env fusion inh 4, eIF4H inh 3, CSC inhib -12, Rce1 inhib inactive, PABP polyA inh 33 and MT1-MMP act inh RFP 8.
Screening CCC1(c2cccc(O)c2)CCCCN(C)C1 (configuration not stated) returned MT1-MMP act inh 0, Env fusion inh 3, CSC inhib -14, Yeast UUG start -9 and MT1-MMP act inh RFP 4.
CCOC(=O)c1c(N)n(CCN2CCOCC2)c2nc3ccccc3nc12 was read as MT1-MMP act inh 2, eIF4H inh -8, CSC inhib -14, Rce1 inhib inactive, Yeast UUG start -10, PABP polyA inh -3 and MT1-MMP act inh RFP 0.
Screening COc1ccc2ccc(O)c(CN3CC=C(c4ccccc4)CC3)c2c1 returned MT1-MMP act inh -4, Env fusion inh 15, eIF4H inh 2, CSC inhib -13, Rce1 inhib inactive, PABP polyA inh 20 and MT1-MMP act inh RFP -3.
O=C(Nc1ccc2c(c1)OCO2)c1cn(Cc2ccc(F)cc2)nn1 was read as MT1-MMP act inh -1, Env fusion inh -36, eIF4H inh -11, CSC inhib 65, Rce1 inhib inactive, Yeast UUG start -16, PABP polyA inh 3 and MT1-MMP act inh RFP -2.
For NS(=O)(=O)c1ccc(N=Cc2c(O)n(-c3ccccc3)c(=O)[nH]c2=O)cc1 the results were MT1-MMP act inh -3, Env fusion inh 7, eIF4H inh inconclusive, CSC inhib -8, Rce1 inhib inactive, PABP polyA inh -5 and MT1-MMP act inh RFP -1.
`CNCCc1c[nH]c2ccccc12` gave MT1-MMP act inh -2, eIF4H inh -1, CSC inhib -12, Rce1 inhib inactive, Yeast UUG start -12, PABP polyA inh 6 and MT1-MMP act inh RFP -4.
Screening CC(=O)N(C1=NCCCS1)c1ccc(F)cc1 returned MT1-MMP act inh 5, Env fusion inh -44, eIF4H inh -5, CSC inhib 3, Rce1 inhib inactive, Yeast UUG start -8, PABP polyA inh 3 and MT1-MMP act inh RFP 2.
For CC(C)c1oc(=O)cc2c1[C@@H](O)[C@H]1OC(=O)[C@@]3(C)CC[C@@H](O)[C@@]2(C)C13 (some centres not stated) the results were MT1-MMP act inh -35, Env fusion inh inactive, eIF4H inh 1, CSC inhib 16, Rce1 inhib inactive, Yeast UUG start -12, PABP polyA inh 9 and MT1-MMP act inh RFP -18.
CC(C)(C)NC(=S)N1Cc2ccccc2-n2nncc2C1 was read as MT1-MMP act inh 4, Env fusion inh 3, Yeast UUG start -13 and MT1-MMP act inh RFP 4.
Cc1ccc(C2SCC(=O)Nc3c2c(=O)[nH]n3C2CCOC(C)(C)C2)cc1 (configuration not stated) was read as MT1-MMP act inh 4, eIF4H inh -17, CSC inhib -9, Rce1 inhib inactive, Yeast UUG start -5, PABP polyA inh 1 and MT1-MMP act inh RFP 2.
`C=CCN(CC=C)C(=O)CCN1CC1C` (configuration not stated) gave MT1-MMP act inh 5, Env fusion inh -22, Yeast UUG start -20 and MT1-MMP act inh RFP 4.
Screening CC(C)(C)NC(=O)CN1CCCN(C(=O)COc2ccc(Cl)c3ccccc23)CC1 returned MT1-MMP act inh 3, Env fusion inh 43, CSC inhib -4, Yeast UUG start -5 and MT1-MMP act inh RFP 1.

An excerpt (hit frequency here may not be typical).
